Assay outcomes as filed in PubChem.
Polio RdRp inh = inhibitors of poliovirus RNA polymerase binding and polymerization. P03300. poliovirus polymerase elongation, fluorescence polarization; stronger effect = lower value. % elongation, % (compound at 16.7 µg/mL). hit rate 0.66% among 150,000. AID 588519; in the data active = % elongation below about 90%; note: some results filed as inactive read as strong as hits
Target sequence (P03300 1749-2209 limits assumed): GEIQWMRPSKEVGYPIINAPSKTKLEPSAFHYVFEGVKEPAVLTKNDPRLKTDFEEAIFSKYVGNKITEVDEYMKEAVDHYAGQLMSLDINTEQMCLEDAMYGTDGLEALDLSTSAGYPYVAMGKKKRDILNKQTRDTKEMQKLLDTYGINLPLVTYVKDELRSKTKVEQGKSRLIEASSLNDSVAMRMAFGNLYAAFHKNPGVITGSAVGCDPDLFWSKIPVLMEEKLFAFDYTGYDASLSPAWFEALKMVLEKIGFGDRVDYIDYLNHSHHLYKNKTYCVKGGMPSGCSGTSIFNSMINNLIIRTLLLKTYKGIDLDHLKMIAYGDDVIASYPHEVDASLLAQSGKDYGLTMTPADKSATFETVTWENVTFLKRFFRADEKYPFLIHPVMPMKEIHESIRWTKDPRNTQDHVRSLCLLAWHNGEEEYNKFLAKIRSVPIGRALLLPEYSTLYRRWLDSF
Polio RdRp inh intensity = second read-out of Polio RdRp inh, no call of its own (marks repeat the call); % elongation; measured here: total intensity read-out; formula for this scale not given here;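 total fluorescence in place of polarization; lower means less elongation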
* marks the source's active call; other numbers are inactive results. The list is partial; the hit share may differ from the screen's.

molecule	Polio RdRp inh	Polio RdRp inh intensity
N#Cc1ccccc1CSc1nnc(-c2ccccc2)o1	103	105
COc1ccc(-c2nc3ccccc3n3c(-c4ccc(OC)cc4)c4c(=O)n(C)c(=O)n(C)c4c23)cc1	105	110
Cc1ccc(NC(=O)Cn2cc3c(n2)CCCC3)cc1Cl	108	110
COc1ccccc1NC(=O)Cn1c(=O)c(CNc2ccc(C)cc2)cc2cc3c(cc21)OCCO3	108	112
COc1cc(Cl)c(NS(=O)(=O)c2cc3[nH]c(=O)c(=O)[nH]c3cc2C)c(OC)c1	94	91
CCCN(CCC)CCCNC(=O)C1CCC(CNS(=O)(=O)c2ccc(NC(C)=O)cc2)CC1 (configuration not stated)	105	112
Cc1oc2c(c(C)cc3oc(=O)c(CC(=O)NCCc4ccccc4F)c(C)c32)c1C	99	101
CCOc1ccc(S(=O)(=O)c2cc3cccc(OCC)c3oc2=O)cc1	112	115
Cc1ccc(S(=O)(=O)c2c(Nc3ccccc3)sc(C(=O)c3ccc4c(c3)OCO4)c2N)cc1	109	116
COCCNc1nc(NCc2ccccc2OC)c2cnn(C)c2n1	104	106
O=C(Nc1ccccc1)c1nc[nH]c1C(=O)O	102	105
Cc1c(Cl)cccc1NC(=O)N1CCN(Cc2cc(=O)n3nc(-c4ccccc4F)sc3n2)CC1	108	115
Cc1cccn2c(Nc3ccccc3)c(-c3ccc(N4CCOCC4)cc3)nc12	106	99
Cc1ccc(N2C(=O)CSC23C(=O)N(CC(=O)NCCc2ccccc2)c2ccccc23)cc1C (configuration not stated)	106	97
CCc1c(C)sc2c1CCN(C(=O)Nc1cc(C)ccc1C)C2c1ccc(OC)cc1 (configuration not stated)	110	111
CCOc1ccc2nc(N3CCC(C(=O)Nc4c(C)cccc4C)CC3)sc2c1	105	109
COC(=O)c1sccc1S(=O)(=O)N1CCN(c2ccccc2OC)CC1	113	112
N#Cc1ccccc1CN1C(=O)c2ccccc2Sc2ccc(C(=O)OCc3ccco3)cc21	100	106
Cc1ccc(C)c(OC(=O)CSc2nnc(-c3ccc4c(c3)OCO4)o2)c1	105	112
O=C(CCc1ccccc1)NCCc1csc(-c2cccc(F)c2)n1	108	101
O=C1CCCc2cc(S(=O)(=O)N3CCCC(C(=O)NCc4ccccc4)C3)ccc2N1 (configuration not stated)	103	106
Cc1ccccc1CNC(=O)CN1C(=O)C2CCCCN2c2ccc(C(=O)N3CCCC3)cc21 (configuration not stated)	97	103
CCc1cccc(NC(=O)CSc2ncc3c(n2)-c2cc(Cl)ccc2N(C)S3(=O)=O)c1	107	116
COCCCNC(=O)c1ccc2c(c1)nc1n2CCCCC1	110	116
CCOc1ccccc1N(C)C(=O)NCc1noc2ccccc12	106	90
O=C(Nc1cccc(C(=O)N2CCN(c3cccc(Cl)c3)CC2)c1)c1nsc2ccccc12	112	118
Cc1cc(C)cc(NC(=O)c2cc(S(=O)(=O)NCCC3=CCCCC3)ccc2F)c1	106	104
Cc1ccc(N(CC(=O)NCc2ccc(Cl)cc2)S(=O)(=O)N(C)C)cc1	108	112
Cc1ccc(OCC(=O)Nc2ccc(S(=O)(=O)N(Cc3ccccc3)c3ccccc3)cc2)cc1	102	104
COc1ccc(-c2nc3ccccc3o2)cc1NC(=O)Cc1ccc(Cl)cc1	104	108
O=C(CSc1nc2c(sc3ccccc32)c(=O)n1CCCC(=O)NC1CCCC1)Nc1ccc(F)cc1	106	111
O=S(=O)(c1ccc(Cl)cc1)c1nc(-c2ccco2)oc1SCc1ccccc1F	111	110
CCOC(=O)c1c(NC(=O)CCCOc2ccccc2C)sc2c1CCC(C)C2 (configuration not stated)	108	109
COc1ccc(NC(=O)Cn2c(=O)n(CC(=O)NCCc3ccccc3)c(=O)c3ccccc32)cc1	107	105
Cc1cccc(N2CCN(C(=O)c3ccc4c(Cl)c5c(nc4c3)CCCC5)CC2C)c1 (configuration not stated)	107	107
O=C(CCCCCn1c(=O)[nH]c2ccccc2c1=O)NCCc1ccccc1	103	108
O=C(NCc1ccccc1Cl)c1ccc2c(c1)NC(=O)C(CS(=O)(=O)Cc1ccc(Cl)cc1)N2 (configuration not stated)	89	271
Cc1ccc(-n2cc(-c3ccccc3)c3c(N4CCCCC4)ncnc32)cc1	110	108
COc1ccc(OC)c(NC(=O)Cn2cnc3c(oc4ccccc43)c2=O)c1	104	103
O=C(CN1CCSc2ccccc21)N1CCN(c2cccc(Cl)c2)CC1	104	98
Cc1ccc(NC(=O)Cn2c(=O)c(CNc3ccccc3)cc3cc4c(cc32)OCCO4)cc1	105	117
O=C(Nc1nnc(S(=O)(=O)N2CCCc3ccccc32)s1)c1ccccc1	111	116
CCc1nn2c(=O)c(S(=O)(=O)Nc3ccc(C)c(C)c3)c(C)nc2s1	102	103
O=C(Cn1cc(S(=O)(=O)Cc2ccccc2Cl)c2ccccc21)NCCc1ccccc1	106	114
Cc1cc(C)c(NC(=O)CN2C(=O)CCSc3ccc(S(=O)(=O)N4CCCC4)cc32)c(C)c1	104	108
COc1ccc(-n2nnnc2C2CCN(S(=O)(=O)c3cccc(C(F)(F)F)c3)CC2)cc1	105	107
COc1ccc(-c2nnc(SCC(=O)c3ccc(NC(C)=O)cc3)o2)cc1OC	94	79
COc1ccc(NC(=O)C(=O)NCCc2ccccc2)cc1OC	104	107
Cc1ccc(NS(=O)(=O)c2ccc3c(c2)CC(=O)N3)cc1Cl	104	105
Cc1ccc(NC(=O)Cn2c(=O)n(CCCC(=O)NCc3ccc4c(c3)OCO4)c(=O)c3ccccc32)cc1	106	111

Additional results follow:
molecule	Polio RdRp inh	Polio RdRp inh intensity
COc1ccccc1NC(=O)c1oc2ccccc2c1NC(=O)COc1cccc(C)c1	104	106
CC(=O)c1cc2c(cc1NC(=O)c1c(C)nn(-c3ccc(C)cc3)c1-n1cccc1)OCO2	107	116
COC(=O)c1cc2oc3ccccc3c2n1Cc1c(C)cc(C)cc1C	108	110
Cc1ccc(OCC(=O)Nc2nnc(SCc3cc(=O)c4ccccc4[nH]3)s2)cc1C	106	112
Cc1nc(-n2nc(C)c(Cc3ccc(Cl)cc3)c2C)sc1C(=O)N1CCC(C)CC1	100	102
CCN(CC)C(=O)c1sc2c(c1C)c(=O)n(CCc1ccccc1)c(=O)n2Cc1cccc(Cl)c1	108	110
O=C(Cn1cnc(S(=O)(=O)N2CCCC2)c1)Nc1cccc(Br)c1	95	102
CCCN(CCC)C(=O)Cn1c(=O)n(-c2cccc(C(F)(F)F)c2)c(=O)c2c(C)c(C)sc21	110	111
CCc1ccc(NC(=O)C2CCN(S(=O)(=O)c3c(C)noc3/C=C/c3cccs3)CC2)cc1	108	110
CCOC(=O)Cn1nc(-c2ccccc2)c2cnc3ccc(OCC)cc3c21	106	109
CC(C)(C)OC(=O)N1CCC(c2c(C(=O)NCCN3CCC(Cc4ccccc4)CC3)cnn2-c2ccccc2)CC1	110	112
CCOC(=O)c1ccc(N2C(=O)c3n[nH]c(-c4ccco4)c3C2c2ccc(F)cc2)cc1 (configuration not stated)	110	115
O=C(Nc1ccc(Br)cc1F)c1cc(S(=O)(=O)NC2CCCCC2)ccc1F	103	109
CCOC(=O)N1CCN(CCC(=O)Nc2cc(C)ccc2C)CC1	103	103
CCCSCCCNC(=O)c1ccc2c(c1)nc1n2CCCCC1	111	111
COc1ccc(NC(=O)Cn2c(=O)n(CCC(=O)NCC3CCCO3)c(=O)c3cc(OC)c(OC)cc32)cc1 (configuration not stated)	105	103
Cc1cccc(OC(=O)c2cc(-c3ccc4c(c3)OCCO4)on2)c1	101	97
O=C(Nc1c(C(=O)N2CCN(c3ccccc3F)CC2)oc2ccccc12)c1cccc(F)c1	110	116
COc1ccc(C(=O)NC2CC(=O)N(c3ccc4c(c3)OCCO4)C2)cc1 (configuration not stated)	108	104
O=C(CSc1nc2c([nH]c3ccccc32)c(=O)n1-c1ccc(F)cc1)NCc1ccco1	109	113
O=C1CC(c2nc3ccccc3[nH]2)CN1c1cccc(Cl)c1 (configuration not stated)	111	116
O=C(/C=C/c1cn(CC(O)CN2CCc3ccccc32)c2ccccc12)c1ccc(Br)cc1 (configuration not stated)	113	111
O=C(CSc1ccnc(=O)[nH]1)NCc1ccc(F)cc1	103	99
COc1cc(OC)cc(C(=O)Nc2cc(-c3nc4cccnc4s3)ccc2C)c1	103	101
O=C(NCCn1cc(SCc2ccccc2)c2ccccc21)c1cccs1	103	104
Cc1ccc(-n2ncc3c(N4CCN(Cc5ccccc5)CC4)ncnc32)cc1	113	105
CCOC(=O)CSc1nc2c(sc3ccccc32)c(=O)n1CCc1ccccc1	108	110
O=C(CC1N=C2c3ccccc3N=C(SCC(=O)Nc3ccc(F)cc3)N2C1=O)NCc1ccc2c(c1)OCO2 (configuration not stated)	105	104
Fc1ccc(C(NCCc2ccccc2)c2nnc(-c3ccccc3Cl)o2)cc1 (configuration not stated)	108	107
COc1ccc(-c2cc(C(=O)N3CCN(c4ccccc4OC)CC3)c3cc(C(C)C)ccc3n2)cc1	103	106
Cc1cccc(C)c1NC(=O)c1sc(-n2nc(C)c(Cc3ccccc3)c2C)nc1C	107	111
CC(C)S(=O)(=O)c1oc(-c2ccc(F)cc2)nc1S(=O)(=O)c1ccccc1	109	108
Cc1ccc(-n2nnc(-c3nsc(NC(=O)c4ccc(C)c(C)c4)n3)c2C)cc1	104	101
CCC(C)NC(=O)c1c2c(nc3ccccc13)C(=O)N(C1CCCCC1)C2 (configuration not stated)	108	113
O=C(CCC1N=C2c3ccccc3N=C(SCC(=O)Nc3cccc(Cl)c3)N2C1=O)NCc1ccco1 (configuration not stated)	108	114
CCC(=O)N1c2ccccc2CC1C(=O)NCc1cc(Br)ccc1OC (configuration not stated)	111	99
Cc1ccc(CNC(=O)c2ccc(CSCc3ccccc3C)o2)cc1	108	107
Cc1ccccc1-n1c(/C=C/c2ccc(O)cc2)nc2ccccc2c1=O	106	109
O=C1CCCc2cc(S(=O)(=O)NCC3CCC(C(=O)Nc4ccc(Cl)cc4)CC3)ccc2N1 (configuration not stated)	100	109
Cc1cc(C)cc(NC(=O)N2CCN(C(=O)c3nsc4ccccc34)CC2)c1	110	100
O=C(COc1ccccc1-c1nc(-c2ccccc2)no1)Nc1ccc([N+](=O)[O-])cc1	111	111
CCC(=O)OC1=CN(Cc2ccccc2)S(=O)(=O)c2ccccc21	108	107
COC(=O)c1cc2sccc2n1Cc1ccc(F)cc1	109	97
COCCn1c(C)cc(O)c(C(c2ccc(Cl)cc2)N2CCCCC2)c1=O (configuration not stated)	111	116
O=C(NCCc1ccccc1)c1cnc2sc(N3CCOCC3)nn2c1=O	110	103
CCOc1ccc(S(=O)(=O)N2CCN(c3ccccc3)CC2)cc1C(N)=O	100	94
Cc1ccc(NC(=O)C(=O)c2cc(C)n(-c3ccc(F)cc3)c2C)cc1C	105	106
CCc1cccc(NC(=O)C(Cc2ccccc2)NS(=O)(=O)c2ccc3c(c2)c(=O)n(C)c(=O)n3C)c1 (configuration not stated)	98	100
COc1ccccc1CNC(=O)CCCn1c(=O)c2ccccc2n(Cc2ccc(C)cc2)c1=O	102	97
CCOC(=O)c1noc2ncn(CC(=O)Nc3ccc(C)c(F)c3)c(=O)c12	107	113

Some of the entries so far, field by field:
CCC(=O)OC1=CN(Cc2ccccc2)S(=O)(=O)c2ccccc21
  Polio RdRp inh: 108; Polio RdRp inh intensity: 107

COC(=O)c1cc2sccc2n1Cc1ccc(F)cc1
  Polio RdRp inh: 109; Polio RdRp inh intensity: 97

COCCn1c(C)cc(O)c(C(c2ccc(Cl)cc2)N2CCCCC2)c1=O (configuration not stated)
  Polio RdRp inh: 111; Polio RdRp inh intensity: 116

O=C(NCCc1ccccc1)c1cnc2sc(N3CCOCC3)nn2c1=O
  Polio RdRp inh: 110; Polio RdRp inh intensity: 103

Filtered by structure: the compounds so far with a cyano group
molecule	Polio RdRp inh	Polio RdRp inh intensity
N#Cc1ccccc1CSc1nnc(-c2ccccc2)o1	103	105
N#Cc1ccccc1CN1C(=O)c2ccccc2Sc2ccc(C(=O)OCc3ccco3)cc21	100	106

Other entries follow:
molecule	Polio RdRp inh	Polio RdRp inh intensity
COc1ccc(-c2c3c(nc4sc(C(=O)Nc5ccc(Cl)cc5)c(N)c24)CC(C)(C)CC3=O)cc1	104	106
Cc1nc2ccccc2n1CC(O)COc1ccc(C(=O)O)cc1 (configuration not stated)	105	104
Cc1cc2nn(-c3ccc(F)cc3)nc2cc1NC(=O)c1cccc([N+](=O)[O-])c1C	107	112
Cc1ccc(Cl)cc1NC(=O)COC(=O)CC(C)(C)CC1=NS(=O)(=O)c2ccccc2N1	106	106
Cc1ccc(Cl)cc1NC(=O)c1cnn2c(C(F)F)cc(-c3ccccc3)nc12	104	111
O=C(NCCc1ccc(Cl)cc1)C(=O)NCC(c1cccs1)S(=O)(=O)c1cccs1 (configuration not stated)	112	111
COc1cc(NC(=O)CCn2nc(C)c(S(=O)(=O)N3CCCCC3)c2C)cc(OC)c1OC	111	109
O=C(NC1CCCC1)c1ccc(CSc2nc3cccnc3n2Cc2ccc(F)cc2)cc1	106	107
Cc1oc(-c2ccccc2Cl)nc1CSc1nncn2c1cc1occc12	110	111
CCOc1ccc(Nc2oc(-c3ccc(COc4ccc(OC)cc4)o3)nc2C#N)cc1	103	111
COc1ccc(C(=O)Nc2ccc3c(c2)N(C)C(=O)c2ccccc2S3)cc1OC	105	103
